# Screens (PubChem)
# Menin MLL FP FL = menin-MLL binding inhibition, fluorescein peptide; Fluorescence polarization, fluorescein-MLL peptide displacement from menin; FP activity change, % at 61.4 µM; 290,000 tested, under 10 active; AID 1766; inconclusive = falling polarisation curve, or a change in total fluorescence; inactive = total fluorescence flat and polarisation flat or rising; no compound was filed as active; the % refers to the polarisation; negative = inhibition;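 further: % of control where 0% means no effect; inhibitors lower the polarisation; unlabelled MLL peptide was the positive control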
# gsp ag = activates gsp, the McCune-Albright syndrome mutation; gsp mutant cells, cAMP HTRF, 30 min; control for the full effect not named in the record; Potency, µM (series often up to 76.9 µM), for the others: at the top dose activation (cAMP increase), most hits filed as activators; hit rate 0.13% among 340,000; active = well fitted activation curve with a large enough effect; inconclusive = small, poorly fitted or top-dose-only effect, or another doubt; inactive = no such curve, though single readings can be large or run the other way; cell line not stated here;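 further: phosphodiesterase inhibitor Ro 20-1724 added with compounds to block cAMP breakdown; potency means the concentration at half of the fitted maximal effect; nearly all actives have a fitted effect of over 60% in size; about a fifth of the inactives were tested at one dose only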
#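 Cells in DMEM/10% FBS with G418 were pretreated with compounds in DMSO plus […] (300 uM stock) for 30 min at 37C. cAMP was measured by HTRF (cAMP-d2 plus anti-cAMP antibody-K) after 30 min at room temperature.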
# D2 ag = agonists of human D2 dopamine receptor (beta-arrestin). P14416. DiscoveRx PathHunter D2 beta-arrestin, luminescence, 90 min; 100% = 57 uM dopamine signal. activation, % (concentration not given with the values). hit rate 0.084% among 360,000. AID 624465; in the data active = activation above about 40%; inconclusive = about 15% to 40%; inactive = below about 15%; further: compound concentration not given in the record; the text of the record calls up to 30% inactive
# Target sequence (P14416 whole entry, looked up): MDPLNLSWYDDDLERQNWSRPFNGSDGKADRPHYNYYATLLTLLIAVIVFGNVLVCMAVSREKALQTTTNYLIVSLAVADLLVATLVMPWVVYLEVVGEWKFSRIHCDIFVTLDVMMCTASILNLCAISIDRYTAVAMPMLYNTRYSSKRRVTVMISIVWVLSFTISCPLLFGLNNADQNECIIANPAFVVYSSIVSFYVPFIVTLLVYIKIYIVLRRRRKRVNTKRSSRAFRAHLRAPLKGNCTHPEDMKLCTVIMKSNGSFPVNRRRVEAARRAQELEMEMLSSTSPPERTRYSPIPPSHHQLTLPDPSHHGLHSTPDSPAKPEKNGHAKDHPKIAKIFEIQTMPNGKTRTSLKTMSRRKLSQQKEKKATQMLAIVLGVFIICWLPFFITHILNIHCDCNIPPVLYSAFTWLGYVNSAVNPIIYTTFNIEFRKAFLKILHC
#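 DiscoveRx PathHunter D2 beta-arrestin cells (2,100/well) attached overnight, then compound-stimulated 90 min at 37 C in HBSS/10 mM HEPES/0.1% Tween-20 buffer; beta-galactosidase complementation read by luminescence after 1 h at ambient temperature. Dopamine 57 uM final (EC100) as control.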
# Sfp PPTase inh = inhibitors of Bacillus subtilis Sfp phosphopantetheinyl transferase. Q9F4F7. Biochemical Sfp PPTase activity, qHTS. Potency, µM, inactives show max response, negative = inhibition, hits mostly inhibitors. hit rate 3.5% among 310,000. AID 1490; active means well fitted inhibition curve with a large enough effect; inconclusive means small, poorly fitted or top-dose-only effect, or another doubt; inactive means no such curve, though single readings can be large or run the other way;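 further: the enzyme is Sfp with the accession as filed and its product quenches rhodamine fluorescence; potency means the concentration at half of the fitted maximal effect; 0% = enzyme reaction without inhibitor and -100% = no enzyme wells; top concentration of the series not given in the record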
#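 Fluorescence-quenching assay: 15 nM Sfp-PPTase preincubated 15 min at room temperature with compound, then 5 uM rhodamine-CoA and 12.5 uM BHQ-2-labelled YbbR peptide added. Fluorescence (ex 525/em 598 nm) read at start and after 30 min; difference gives rate.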
# PINK1 expr mod = changes PINK1 expression; Potency, µM (highest dose often 76.6 µM), inactives show at the highest dose activation (PINK1 increase), most hits filed as activators; hit rate 0.2% among 410,000; PINK1 immunofluorescence, high-content cytometry, 24 h; active = well fitted activation curve with a large enough effect; inconclusive = small, poorly fitted or top-dose-only effect; inactive = flat fitted curve, though single readings scatter; cell line not stated here;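 further: potency means the concentration at half of the fitted maximal effect; % of control where 0% means no effect; nearly all actives have a fitted effect of over 65% in size; a mitochondrial uncoupler was the plate control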
#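 Readout is PINK1 immunofluorescence, quantified alongside mitochondrial, cell and nuclear markers by laser-scanning microplate cytometry. Cells from a stable line were exposed to compound titrations (5 concentrations) for 24 hours, with CCCP controls.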
# ClpP mod = qHTS Assay for Activators of ClpP | purified B. subtilis ClpP, FRET peptide cleavage, 20 min | AID 651965, 2013 | Potency, µM (highest dose often 57.5 µM), for inactives: at the top dose activity change, negative = active | hit rate 1.9% among 340,000 | ATP-dependent Clp protease proteolytic subunit (Bacillus subtilis (strain 168)), P80244; active = well fitted falling curve with a large enough effect; inconclusive = small, poorly fitted or top-dose-only effect; inactive = no such curve, though single readings can be large or run the other way; further: potency means the concentration at half of the fitted maximal effect; the source files actives as falling curves though it sought activators and does not explain the sign; nearly all actives have a fitted effect of over 65% in size; many hits overshoot -100%
# Target sequence (P80244 whole entry, looked up): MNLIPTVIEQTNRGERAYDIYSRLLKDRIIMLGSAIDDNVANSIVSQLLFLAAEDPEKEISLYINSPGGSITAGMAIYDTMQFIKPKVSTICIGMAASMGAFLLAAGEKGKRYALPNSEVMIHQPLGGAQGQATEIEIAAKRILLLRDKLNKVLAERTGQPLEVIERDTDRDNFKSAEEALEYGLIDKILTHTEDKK
#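 Purified B. subtilis ClpP, 10 microg/mL final in Tris/HCl pH8 with KCl, BSA, glycerol and Tween-20, cleaved an Abz/nitrotyrosine-quenched decapeptide. Fluorescence (ex 320, em 430) was read at 0 and 20 min at room temperature. Delta was normalized to 5.8 microM ADEP and DMSO/no-enzyme controls.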
# gsp antagonist = antagonists of gsp mutant (McCune-Albright syndrome); Potency, µM (titrated, usually from 76.9 µM), without a hit: at the top dose activity change, negative = inhibition, most hits filed as inhibitors; gsp-mutant cells, cAMP HTRF, 30 min; control for the full effect not named in the record; AID 624288; hit rate 0.4% among 340,000; active = falling curve of any shape with a large fitted effect; inconclusive = falling curve, mostly with a smaller effect; inactive = flat or rising curve; cell line not stated here;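 further: intracellular cAMP measured with PDE inhibitor Ro 20-1724 present during compound exposure; potency means the concentration at half of the fitted maximal effect; on the % scale 0 is the no-effect control and ±100 the full control effect; nearly all actives have a fitted effect of over 65% in size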
#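 G418-selected cells were plated in DMEM/10% FBS for 16-24 h at 37C, then treated with compounds plus the PDE inhibitor […] (300 uM solution added) for 30 min at 37C. Intracellular cAMP was measured by HTRF after 30 min lysis at room temperature.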
# * marks the source's active call; other numbers are inactive results; ? = inconclusive; . = not tested or not shown; [ ] = dose if it differs, or a comment.
SMILES,Menin MLL FP FL,gsp ag,D2 ag,Sfp PPTase inh,PINK1 expr mod,ClpP mod,gsp antagonist
Cc1ccc(C)c(N(C(=O)Cc2cccs2)C(C(=O)NC2CCCC2)c2ccc(C)o2)c1 (centres undefined),0.1,19%,-0.8,0%,?,0.6%,2%
CCCN(CCC)S(=O)(=O)c1ccc(Cl)c(OC)c1,0.1,-1%[15.4 µM],-2.9,-2%,0.9%,.,6%
CNC(=O)Cc1csc2ccc(C)cc12,7.3,7%[15.4 µM],-3.9,1%,2.0%,-1.0%,0%
CCCCn1c(CN2C(=O)c3ccccc3C2=O)nc2ccccc2c1=O,2.1,-15%,-1.3,-13%,14%,-2.6%,-4%
Cc1ccnn1CC(=O)N/N=C/c1c[nH]c2ccccc12,1.0,-4%[15.4 µM],-2.1,14%,1.5%,-0.7%,-2%
COCCNC(=S)N1C2CCC1CC(NC(=O)NC13CC4CC(CC(C4)C1)C3)C2 (centres undefined),5.0,-6%,0.9,16%,0.5%[38.3 µM],-0.4%,2%
CC(O)CCC(=O)NCCNC(=O)CCC(C)O (centres undefined),-1.3,-25%,-2.0,1%,0.9%,-0.5%,2%
O=C(NC(=S)Nc1nc(-c2ccccc2)cs1)c1cccs1,-1.9,-8%[15.4 µM],-2.7,5%,?,4.2%,-9%
Nn1c(-c2ccco2)n[nH]c1=S,-0.5,1%,-2.2,56µM*,8.1%[38.3 µM],-11%,-6%
COc1ccc(C(=O)C2CCCN(C(=O)Cn3cncn3)C2)cc1OC (centres undefined),4.0,0%,0.5,12%,0.4%,-4.8%,16%
O=C1OC(N2C(=O)CC[C@H]2C(=O)Nc2ccc(F)c(F)c2)c2ccccc21 (some centres undefined),0.0,.,-1.6,15%,1.6%,0.9%,4%
Cc1c(Br)c([N+](=O)[O-])nn1CC(=O)Nc1ccc2nc3n(c(=O)c2c1)CCCC3,.,-2%,0.7,1%,0.0%,-1.6%,-9%
c1cc2c3c(cccc3c1)-c1cnccc1-2,.,?,6.0,.,0.7%,.,0%
c1ccc2sc(N3CCOCC3)nc2c1,-2.2,17%,0.7,9%,14%[38.3 µM],1.6%,4%
COc1c(S(=O)(=O)n2nc(C)cc2C)ccc(Cl)c1Cl,0.5,?,-0.9,-29%,0.9%,0.1%,?
CCOC(=O)C1=C(COC(=O)/C=C/c2ccc(OC)cc2OC)NC(=O)NC1C (centres undefined),.,-9%,0.5,.,-1.3%,15%,17%
O=C1CCN(Cc2nnnn2CC2CCCO2)c2ccccc2N1 (centres undefined),4.5,-1%,-2.6,?,2.5%[38.3 µM],-1.5%,6%
COc1ccc(NC(=O)/C(=C\c2cccnc2)NC(=O)c2cccs2)cc1,-0.7,-4%,-4.5,8%,15%,0.5%,13%
CCOc1ccc(C2/C(=C(\O)c3ccc4c(c3)OCCO4)C(=O)C(=O)N2CCN2CCOCC2)cc1OC (centres undefined),.,?,-4.4,-7%,1.3%,1.3%,11%
O=C(O)c1ccc(CNC(=O)c2ccccc2NC(=O)c2ccc([N+](=O)[O-])cc2)cc1,0.4,3%[15.4 µM],10,15%,2.2%,.,-19%
Cc1cccc(NC(=O)C2CCCN(S(=O)(=O)c3cccc4cccnc34)C2)c1 (centres undefined),4.8,-42%[inhibitor],-3.1,23%,0.2%,-3.5%,-13%
FC(F)(F)c1cc(-c2ccco2)nc(N2CCOCC2)n1,0.9,-42%,-2.3,-6%,16%,-7.8%,13%
CCc1cccc(CC)c1N(COC)C(=O)Cn1c(CO)nc2ccccc21,0.9,-3%,-0.7,13%,-3.4%,-1.3%,0%
CCOC(=O)c1c(NC(=O)c2ccc(C)cc2)sc2c1CC(C)(C)OC2,1.2,-3%,-5.6,25µM*,27%,25µM*,-12%
CCOC(=O)C1(CCOC)CCN(Cc2cnc(-c3cccc(C)c3)nc2)CC1,0.4,-2%[15.4 µM],-0.9,2%,-0.4%,.,-13%
# Further entries
SMILES,Menin MLL FP FL,gsp ag,D2 ag,Sfp PPTase inh,PINK1 expr mod,ClpP mod,gsp antagonist
CCN(CC)C(=O)N1CCN(S(=O)(=O)c2ccc(C)c(C)c2)CC1,2.0,-28%,0.3,17%,-3.2%,2.7%,-8%
C=CCN(CC=C)C(=S)NC(=O)Cc1cccc2ccccc12,-3.2,-9%[15.4 µM],-1.2,-10%,0.7%,.,4%
CC(=O)c1c(C)[nH]c(C(=O)N2CCN(C(=O)c3ccco3)CC2)c1C,1.3,-21%,-1.7,12%,-0.7%,-1.6%,-2%
COc1ccc(/C=N/NC(=O)c2nn(-c3ccc(Cl)cc3)c(=O)c3c(N)scc23)cc1,-0.9,4%,4.2,-27%,1.4%[38.3 µM],-0.8%,1%
COc1ccc(NC(=O)c2ccc(Cl)c(S(=O)(=O)NCC3CCCO3)c2)c(OC)c1 (centres undefined),-0.3,?,11,11%,0.3%,0.0%,17%
CC(=O)C1C(c2ccccc2)c2c(noc2C)CC1(C)O (centres undefined),3.9,-2%,-2.9,18%,-0.1%,0.2%,0%
c1ccc2c3c(c(CN4CCCCC4)cc2c1)COC3,0.1,5%[15.4 µM],-3.5,-21%,1.6%,0.6%,3%
CC1CC/C(=N/Nc2ccccc2)C(=O)N1 (centres undefined),.,-30%,-5.0,12%,-1.1%,6.3%,3%
CCOC(=O)C1(Cc2cccc(OC)c2)CCCN(S(=O)(=O)c2cccnc2)C1 (centres undefined),-13,3%,-0.9,13%,0.6%,-1.3%,-5%
Cc1noc(C)c1COc1cccc(C(=O)OCC(=O)NCCN2C(=O)CSC2=O)c1,-1.1,6%[15.4 µM],1.2,9%,3.0%,.,.
C[C@@H]1CCCCO[C@@H](CN(C)C(=O)c2ccncc2)[C@@H](C)CN([C@H](C)CO)C(=O)c2cc(N(C)C)ccc2O1,.,-41%[inhibitor],-1.2,.,0.1%,-3.2%,.
CC(C)C[C@H](NC(=O)c1nc[nH]c1C(=O)NCc1ccc(CNC(=O)OC(C)(C)C)cc1)C(=O)OCc1ccccc1,3.8,.,-1.3,6%,1.3%,-0.8%,-16%
Cc1ccc2c(c1)N(CC(=O)NCCc1ccccc1)C(=O)c1cccnc1O2,0.3,-32%[inhibitor],-6.7,10%,1.4%,0.3%,-2%
COc1cc(/C=C(\C#N)C(=O)c2c[nH]c3ccccc23)cc(OC)c1O,?,-26%[15.4 µM],-8.2,-26%,0.2%,.,-28%
COc1ccc(CCNC(=O)COC(=O)c2sc(C)nc2C)cc1,.,-20%,-0.7,.,0.6%,-1.3%,1%
CC(=O)c1ccc(OCC(O)CN2C(C)CCCC2C)cc1 (centres undefined),0.9,?,-2.9,9%,1.0%,-0.9%,8%
COc1ccc(C(=O)NC(C)Cc2c[nH]c3ccccc23)cc1 (centres undefined),.,-45%[inhibitor],0.8,.,1.7%,0.9%,.
O=C(c1ccccc1S(=O)(=O)NCc1ccccc1)N1CCCC1,-1.9,14%,0.4,-6%,2.2%,-1.5%,11%
COc1cccc(NC(=O)Nc2nnc([C@@H]3C[C@H](O)[C@@H](CO)O3)s2)c1,.,.,-0.7,.,-0.3%,0.3%,.
CCOCCCN(C)C1CCN(C(=O)c2oc3ccccc3c2NC(=O)COc2cccc(C)c2)CC1,.,29%,-3.5,-2%,1.2%,-2.0%,7%
Cc1c(C(=O)N2CCc3ccccc3C2)oc2ccc(S(=O)(=O)N3CC(C)CC(C)C3)cc12 (centres undefined),-0.3,?,0.5,5%,0.0%,0.7%,-10%
Cc1c(C(=O)N2CCN(c3ccc([N+](=O)[O-])cc3)CC2)oc2ccccc12,.,9%,0.8,.,2.2%,0.6%,?
O=C(CCCCl)NC(=S)Nc1ccc(N2CCOCC2)cc1,0.7,0%,5.3,?,-0.2%,.,5%
O=C(NCCO)c1cc([N+](=O)[O-])cc2c1C=Cc1ccccc1O2,-1.0,4%[15.4 µM],-0.7,5%,-0.7%,-4.5%,1%
COCC(=O)Nc1ccc([N+](=O)[O-])cc1OC,1.7,1%,1.5,12%,1.3%,?,2%
# Next section.
SMILES,Menin MLL FP FL,gsp ag,D2 ag,Sfp PPTase inh,PINK1 expr mod,ClpP mod,gsp antagonist
CCCCn1c(=S)[nH]c2ccccc2c1=O,1.3,0%,-0.1,9%,1.2%,0.7%,11%
CCS(=O)(=O)c1ccc2c(c1)N(S(=O)(=O)c1ccc(C)cc1)CC(C(=O)O)O2 (centres undefined),3.1,5%[15.4 µM],-3.0,33%[activator],0.2%,.,22%
CCCCNc1ccc2c(c1)C1CC2CCN1C(=O)OCc1ccccc1 (centres undefined),.,.,-1.9,.,8.1%,-20%,-15%
C=CCNC(=O)c1c(CSc2ccc(F)cc2)noc1C(=O)NCCC,.,.,0.0,.,0.7%,1.2%,-1%
COc1ccc2c(CC(=O)N3CCc4ccccc43)coc2c1,2.1,-20%,1.3,-16%,3.4%,5.9%,-5%
CC(=O)c1c(C)[nH]c(C(=O)OCC(=O)N2CCN(c3ccccc3)CC2)c1C,.,?,-5.2,.,1.5%,0.1%,.
O=C(CN1C(=O)C(=O)N(Cc2ccccc2)C1=O)Nc1ccc(F)c(Cl)c1,0.7,-2%,2.3,15%,1.3%,.,1%
CCOC(=O)C1CN(S(=O)(=O)c2ccc(OC)cc2)c2cc(CC(=O)OC)ccc2O1 (centres undefined),-2.4,1%,-2.4,6%,2.3%,-4.0%,-6%

# 3 compounds out of the list above, arranged by the number in Menin MLL FP FL, smallest number first:
canonical_smiles | Menin MLL FP FL | gsp ag | D2 ag | Sfp PPTase inh | PINK1 expr mod | gsp antagonist
O=C(CN1C(=O)C(=O)N(Cc2ccccc2)C1=O)Nc1ccc(F)c(Cl)c1 | 0.7 | -2% | 2.3 | 15% | 1.3% | 1%
CCCCn1c(=S)[nH]c2ccccc2c1=O | 1.3 | 0% | -0.1 | 9% | 1.2% | 11%
COc1ccc2c(CC(=O)N3CCc4ccccc43)coc2c1 | 2.1 | -20% | 1.3 | -16% | 3.4% | -5%

# Outcome played no part in choosing rows, and some 5.1% of all compounds hit somewhere here.
